Screening results (PubChem)
KCNQ2 block: KCNQ2 potassium channel inhibitors, primary screen, cell-based, CHO-K1, FluxOR thallium flux, B-score (AID 2156); B-score at 10 µM; 310,000 tested, 1.1% active; O88943; 20 min; hits give low values; only compounds with negative scores are shown here; some inactives read as strong as hits;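 active = fluorescence ratio B-score at most minus 3 library SDs, with starting brightness B-score within 2 library SDs, cut at about -5.5 in these data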
Target sequence (O88943 whole entry, looked up): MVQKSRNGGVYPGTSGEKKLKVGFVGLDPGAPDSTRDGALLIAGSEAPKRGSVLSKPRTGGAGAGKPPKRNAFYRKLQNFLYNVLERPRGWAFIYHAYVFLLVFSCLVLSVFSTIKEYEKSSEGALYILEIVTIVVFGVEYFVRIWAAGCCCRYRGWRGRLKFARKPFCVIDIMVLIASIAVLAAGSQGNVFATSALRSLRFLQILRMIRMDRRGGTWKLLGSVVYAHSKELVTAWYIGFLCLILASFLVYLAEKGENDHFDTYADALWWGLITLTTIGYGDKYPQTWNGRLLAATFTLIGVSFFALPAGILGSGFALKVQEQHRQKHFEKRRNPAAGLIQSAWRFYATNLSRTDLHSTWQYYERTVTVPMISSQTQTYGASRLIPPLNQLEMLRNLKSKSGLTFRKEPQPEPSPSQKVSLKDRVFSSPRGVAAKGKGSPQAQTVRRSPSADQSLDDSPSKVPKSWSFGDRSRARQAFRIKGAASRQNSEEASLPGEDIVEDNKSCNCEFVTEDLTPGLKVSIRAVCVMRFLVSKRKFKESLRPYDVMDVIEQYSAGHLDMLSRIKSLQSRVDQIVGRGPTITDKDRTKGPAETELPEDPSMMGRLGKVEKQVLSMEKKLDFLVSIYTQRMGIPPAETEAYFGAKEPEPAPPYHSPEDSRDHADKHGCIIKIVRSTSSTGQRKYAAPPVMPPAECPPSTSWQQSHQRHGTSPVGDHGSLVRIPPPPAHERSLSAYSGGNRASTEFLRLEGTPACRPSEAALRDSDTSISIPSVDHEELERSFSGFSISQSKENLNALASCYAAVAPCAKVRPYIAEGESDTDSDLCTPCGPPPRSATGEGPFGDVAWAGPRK
KCNQ2 block baseline: also measured in KCNQ2 block; calls as there; B-score; measured here: initial fluorescence intensity artifact check;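 brightness before thallium and not channel activity; 0 = typical well and far values either way flag optical interference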
* hit, by the source's call; i = inactive. Not all compounds are listed. The share of hits here may be higher or lower than overall.

[1] CCC(C)NC(=O)c1ccc(C2SCC(=O)N2Cc2ccccc2)cc1 (configuration not stated)
  KCNQ2 block: i
  KCNQ2 block baseline: -0.3
[2] c1cncc(-c2nc(-c3ccco3)cs2)c1
  KCNQ2 block: i
  KCNQ2 block baseline: -1.8
[3] COC(=O)c1cc2c(ccn2-c2ccc(F)cc2)n1Cc1ccc(OC(C)=O)cc1
  KCNQ2 block: i
  KCNQ2 block baseline: 0.38
[4] O=C(C1CCCN(S(=O)(=O)c2ccc(Br)s2)C1)N1CCN(c2ccccc2)CC1 (configuration not stated)
  KCNQ2 block: i
  KCNQ2 block baseline: 0.45
[5] CCCC(C(=O)NCc1ccco1)N(C(=O)CNS(=O)(=O)c1ccc(Cl)cc1)C1CCCC1 (configuration not stated)
  KCNQ2 block: i
  KCNQ2 block baseline: -2.3
[6] O=C(NCC(=O)N(c1cccc(F)c1)C(C(=O)NC1CCCC1)c1ccncc1)c1cccs1 (configuration not stated)
  KCNQ2 block: i
  KCNQ2 block baseline: 0.59
[7] O=C(Cn1nnc(-c2ccccc2)n1)c1ccccc1
  KCNQ2 block: i
  KCNQ2 block baseline: -1.8
[8] O=C(NCc1c[nH]c2ccccc12)c1ccccc1
  KCNQ2 block: i
  KCNQ2 block baseline: -0.03
[9] CC1(C)CC(=O)C(C(C2=C(O)CC(C)(C)CC2=O)c2ccc(Br)s2)C(=O)C1 (configuration not stated)
  KCNQ2 block: i
  KCNQ2 block baseline: -0.86
[10] COC(=O)c1c(C)oc2c1cc(NS(=O)(=O)c1ccc(C(=O)O)cc1)c1ccccc12
  KCNQ2 block: i
  KCNQ2 block baseline: -0.74
[11] CCOC(=O)CC(=O)CSc1nc(CC)c(C)cc1C#N
  KCNQ2 block: i
  KCNQ2 block baseline: -0.07
[12] CCOc1ccc(NC(=O)CSc2nnc(-c3ccccn3)n2N)cc1
  KCNQ2 block: i
  KCNQ2 block baseline: 0.66
[13] O=C(CN1C(=O)c2ccc([N+](=O)[O-])cc2C1=O)NCc1ccc(C(=O)O)cc1
  KCNQ2 block: i
  KCNQ2 block baseline: 0.08
[14] CC(=O)Nc1ccc(OCC(O)Cn2ccnc2C)cc1 (configuration not stated)
  KCNQ2 block: i
  KCNQ2 block baseline: -0.82
[15] O=C1/C(=C/c2ccncc2)CCC/C1=C\c1ccncc1
  KCNQ2 block: i
  KCNQ2 block baseline: -0.86
[16] COc1cccc(-c2csc(N3CCN(C(=S)Nc4cccc(Cl)c4)CC3)n2)c1
  KCNQ2 block: i
  KCNQ2 block baseline: 1.1
[17] COC(=O)c1sc(-c2ccccc2)cc1NC(=O)C1CC1
  KCNQ2 block: i
  KCNQ2 block baseline: 0.04
[18] Cc1c(C(=O)N2CCOCC2)sc(NC(=O)c2ccc3c(c2)OCO3)c1C#N
  KCNQ2 block: i
  KCNQ2 block baseline: 1.7
[19] O=C(CSCc1cccc(Cl)c1)Nc1ccccc1-c1ccccc1
  KCNQ2 block: i
  KCNQ2 block baseline: 0.07
[20] c1ccc(OCCCn2ccnc2)cc1
  KCNQ2 block: i
  KCNQ2 block baseline: -0.59
[21] O=C(CN1CCN(c2ccccn2)CC1)Nc1cc(C(F)(F)F)ccc1Cl
  KCNQ2 block: i
  KCNQ2 block baseline: 4.2
[22] CCOC(=O)COc1ccc2c(=O)c(-c3ccccc3OC)coc2c1
  KCNQ2 block: i
  KCNQ2 block baseline: 1.2
[23] O=C(CCc1nnc2ccc(NCc3ccco3)nn12)Nc1cc(F)ccc1F
  KCNQ2 block: i
  KCNQ2 block baseline: 1.8
[24] N#Cc1c(N)n(CCNC(=O)c2ccc(Cl)cc2)c2nc3ccccc3nc12
  KCNQ2 block: i
  KCNQ2 block baseline: -1.8
[25] O=C(NNC1CC(=O)N(c2ccc(F)cc2)C1=O)c1cccnc1 (configuration not stated)
  KCNQ2 block: i
  KCNQ2 block baseline: -0.96

[26] COc1ccc(-n2cc(-c3ccccc3)c3c(N4CC(C)OC(C)C4)ncnc32)cc1 (configuration not stated)
  KCNQ2 block: i
  KCNQ2 block baseline: 0.03
[27] CCCCCCC(=O)NNC(=O)CC(=O)Nc1ccccc1C(=O)O
  KCNQ2 block: i
  KCNQ2 block baseline: 1.4
[28] CC(C)(C)CN1CCC(Oc2cccc(C(=O)N3CCNC(=O)C3(C)C)c2)CC1
  KCNQ2 block: i
  KCNQ2 block baseline: 0.78
[29] O=C(CC1CCCCC1)N1CCCC(c2nc(-c3ccc(S(=O)(=O)N4CCCC4)cc3)no2)C1 (configuration not stated)
  KCNQ2 block: i
  KCNQ2 block baseline: 0.8
[30] Oc1ccc(Br)cc1/C=N/N1CCN(Cc2cccc3ccccc23)CC1
  KCNQ2 block: i
  KCNQ2 block baseline: 1.4
[31] Cc1ccc(NC(=O)CCC(=O)NNC(=O)c2ccco2)c(C)c1
  KCNQ2 block: i
  KCNQ2 block baseline: -0.46
[32] Cc1sc2ncn(CC(=O)NCCCC(=O)Nc3ccc(C(C)C)cc3)c(=O)c2c1C
  KCNQ2 block: i
  KCNQ2 block baseline: 0.83
[33] COc1ccc(NC(=O)c2sc3ncn(CC(=O)N4CCN(c5ccccn5)CC4)c(=O)c3c2C)cc1OC
  KCNQ2 block: i
  KCNQ2 block baseline: -1.7
[34] Cc1ccc(NC(=O)COc2cccc(C)c2C)cc1S(=O)(=O)N1CCCCCC1
  KCNQ2 block: -8.8*
  KCNQ2 block baseline: -0.09*
[35] CCOCCCNC(=S)N1CCC(NC(=O)C2CCCCC2)CC1
  KCNQ2 block: i
  KCNQ2 block baseline: 1.9
[36] COc1ccc(NC(=O)C2CC(=O)OC23CCOC(C)(C)C3)cc1 (configuration not stated)
  KCNQ2 block: i
  KCNQ2 block baseline: 1.4
[37] CC(C)(C)OC(=O)NCc1ccc(NC(=O)c2nc[nH]c2C(=O)N[C@@H](Cc2ccccc2)C(=O)OC(C)(C)C)cc1
  KCNQ2 block: i
  KCNQ2 block baseline: -1.6
[38] O=S(=O)(c1ccccc1)N1CCN(C2CCCCCCC2)CC1
  KCNQ2 block: i
  KCNQ2 block baseline: -1.1
[39] O=C(Nc1ccccc1NC(=O)c1ccccc1Cl)c1ccccc1Cl
  KCNQ2 block: i
  KCNQ2 block baseline: 0.11
[40] Cc1ccnc(N2C(=O)c3cccc4c([N+](=O)[O-])ccc(c34)C2=O)c1
  KCNQ2 block: i
  KCNQ2 block baseline: 2.2
[41] COc1ccccc1C1NC(=O)NC(C)=C1C(C)=O (configuration not stated)
  KCNQ2 block: i
  KCNQ2 block baseline: -0.05
[42] CCOP(=O)(OCC)C(Nc1ccc(OC)cc1)c1ccco1 (configuration not stated)
  KCNQ2 block: i
  KCNQ2 block baseline: 0.89
[43] CC(C)C(C)N(Cc1ccc(C(=O)O)cc1)C(=O)c1ccc2ccccc2n1 (configuration not stated)
  KCNQ2 block: i
  KCNQ2 block baseline: 1.3
[44] COc1ccc(N(CC(=O)NCc2ccc(F)cc2)C(=O)CCC(=O)Nc2nccs2)cc1
  KCNQ2 block: i
  KCNQ2 block baseline: 0.38
[45] Cc1ccc(S(=O)(=O)/C=C/c2ccccc2)cc1
  KCNQ2 block: i
  KCNQ2 block baseline: -0.26
[46] O=c1[nH]c2ccc(S(=O)(=O)N3CCCCC3)cc2o1
  KCNQ2 block: i
  KCNQ2 block baseline: -2.1
[47] CC(=O)Nc1ccc(S(=O)(=O)NCCCCNS(=O)(=O)c2ccc(NC(C)=O)cc2)cc1
  KCNQ2 block: i
  KCNQ2 block baseline: 1.6
[48] O=C(c1ccc(Br)cc1)C1CCc2occc2C1=O (configuration not stated)
  KCNQ2 block: i
  KCNQ2 block baseline: 1.8
[49] S=c1[nH]nc(-c2ccccc2)n1/N=C/c1ccc(Cl)cc1
  KCNQ2 block: i
  KCNQ2 block baseline: -0.49
[50] CCc1cc(=O)oc2cc(C)cc(OCC(=O)N3CCC[C@@H]3C(=O)O)c12
  KCNQ2 block: i
  KCNQ2 block baseline: 1.8

[51] O=C(NCC(c1cccs1)N1CCOCC1)c1ccccc1NS(=O)(=O)c1ccc(Br)cc1 (configuration not stated)
  KCNQ2 block: i
  KCNQ2 block baseline: -1.8
[52] Cc1cc(Cl)nc(-c2ccccc2)n1
  KCNQ2 block: i
  KCNQ2 block baseline: -0.54
[53] O=S(=O)(Nc1ncn[nH]1)c1ccc(Cl)cc1
  KCNQ2 block: i
  KCNQ2 block baseline: -0.31
[54] O=C(NC1=NCCS1)c1ccc(Cl)c(S(=O)(=O)N2CCCCC2)c1
  KCNQ2 block: i
  KCNQ2 block baseline: 1
[55] COc1ccc([N+](=O)[O-])cc1Nc1ncnc2ccccc12
  KCNQ2 block: i
  KCNQ2 block baseline: -1.1
[56] CC(=O)c1ccc(N(C(=O)Cn2nnc3ccccc32)C(C(=O)NC2CCCCC2)c2cn(C)nc2C)cc1 (configuration not stated)
  KCNQ2 block: i
  KCNQ2 block baseline: -0.9
[57] Cc1ccccc1C(=O)NCC(=O)OCCCOC(=O)CNC(=O)c1ccccc1C
  KCNQ2 block: i
  KCNQ2 block baseline: -0.85
[58] CC(=O)c1cccc(NC(=O)N2CCOCC2)c1
  KCNQ2 block: i
  KCNQ2 block baseline: -0.02
[59] CC(C)Oc1ccc(Br)cc1C(=O)N/N=C/c1c[nH]c2ccccc12
  KCNQ2 block: i
  KCNQ2 block baseline: -1.6
[60] CC1Cc2ccccc2N1C(=O)CSc1nc(-c2ccccc2)cs1 (configuration not stated)
  KCNQ2 block: i
  KCNQ2 block baseline: -0.25
[61] COc1cccc(NC(=O)CCc2nnc3ccc(N4CCC(C)CC4)nn23)c1
  KCNQ2 block: i
  KCNQ2 block baseline: -1.6
[62] C=CCn1c(-c2c(C)nc3cc(C)ccn23)n[nH]c1=S
  KCNQ2 block: i
  KCNQ2 block baseline: -0.01
[63] N#CCC(=O)N/N=C/c1cn(Cc2cccc3ccccc23)c2ccccc12
  KCNQ2 block: i
  KCNQ2 block baseline: 0.27
[64] O=C(NC(=S)NC(c1ccccc1)c1ccncc1)c1ccccc1 (configuration not stated)
  KCNQ2 block: i
  KCNQ2 block baseline: 0.35
[65] CCOC(=O)c1cc2c(ccn2-c2ccc(F)cc2)n1CC(=O)NC(C)(C)C
  KCNQ2 block: -6.7*
  KCNQ2 block baseline: 0.72*
